Bioassay records (PubChem BioAssay)
RE007 growth inh: less growth of the S. pombe RE007 Vpr strain; Potency, µM (titrated, usually from 92.2 µM), without a hit: at the top dose activity change, negative = less growth; AID 651644; S. pombe RE007 Vpr strain, BacTiter-Glo ATP luminescence, 24 h; control for the full effect not named in the record; hit rate 0.21% among 360,000; active = well fitted falling curve with a large enough effect; inconclusive = small, poorly fitted or top-dose-only effect; inactive = no such curve, though single readings can be large or run the other way;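 also: % is scaled to controls: 0 for no effect and ±100 for the full control effect; nearly all actives have a fitted effect of over 50% in size; the assay follows cell death caused by Vpr and the record does not say whether a fall means rescue or toxicity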
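Fission yeast RE007 carrying one integrated HIV-1 vpr copy, seeded at OD 0.01 in PMG+AL medium with 23 nL pinned compound. Grown 24 h at 30 degrees; viability read by BacTiter-Glo luminescence after 5 min.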
2A StopGo: FMDV 2A StopGo reporter, luciferase signal; Potency, µM (doses to about 57.9 µM), for inactives: at the top dose signal change, negative = less light; AID 1159524; human cells with a luciferase reporter of 2A StopGo recoding; control for the full effect not named in the record; hit rate 1.2% among 410,000; active = well fitted falling curve with a large enough effect; inconclusive = small, poorly fitted or top-dose-only effect; inactive = no such curve, though single readings can be large or run the other way; tested in HEK293T cells; also: % is scaled to controls: 0 for no effect and ±100 for the full control effect; nearly all actives have a fitted effect of over 45% in size; luciferase light after 4 h
SARS PLP yeast: inhibitors of SARS-CoV papain-like protease in yeast | S. cerevisiae expressing SARS-CoV PLpro, growth rescue; control for the full effect not named in the record | Potency, µM (series often up to 32.9 µM), for inactives: top-dose activity, positive = growth rescue | hit rate 0.19% among 330,000 | AID 485353; active means well fitted rising curve with a large enough effect; inconclusive means small, poorly fitted or top-dose-only effect; inactive means no such curve, though single readings can be large or run the other way; also: 0% is about no effect; nearly all actives have a fitted effect of over 55% in size; growth read by luminescence after 48 h
* hit, by the source's call; ? = inconclusive; [ ] = another dose, or the depositor's remark. Potency is read from the fitted curve at half-maximal effect. This is a subset, so the mix of outcomes need not match the whole.

#1 CC1CN(C(=O)COc2ccc3c(-c4ccccc4)cc(=O)oc3c2)CC(C)O1 (stereo not drawn)
#2 O=C1NC(C(=O)O)=CC(c2cccc(Cl)c2Cl)N1 (stereo not drawn)
#3 CC1(NC(=O)Cc2c(F)cccc2Cl)CCS(=O)(=O)C1 (stereo not drawn)
#4 C=C1C[C@H](O)[C@@H]2[C@H](OC(=O)[C@H]2C)[C@H]2[C@H](C)[C@@H](O)C[C@@H]12
#5 CCN(C[C@H]1N[C@@](CC)(C(=O)OC)[C@H]2C(=O)N(C)C(=O)[C@@H]12)C(=O)Nc1ccc(F)cc1
#6 C[C@H](CO)N1C[C@H](C)[C@@H](CN(C)C(=O)NC2CCCCC2)Oc2c(NC(=O)C3CCCCC3)cccc2C1=O
#7 O=C(CN1CCCSc2ccccc21)N1CCN(S(=O)(=O)c2cccc(F)c2)CC1
#8 CCOC(=O)c1c(C)[nH]c(C(=O)COC(=O)/C=C/c2ccc(OCC#N)c(OC)c2)c1C
#9 C[C@H]1CN([C@@H](C)CO)C(=O)Cc2cc(NS(C)(=O)=O)ccc2O[C@@H]1CN(C)CC1CC1
#10 Cc1ccc(NC(=O)CC2OC(=O)c3ccccc32)cc1S(=O)(=O)N1CCOCC1 (stereo not drawn)
compound no.	1	2	3	4	5	6	7	8	9	10
RE007 growth inh	-2%	18%	2%	12%	9%	8%	-22%	13%	7%	16%
2A StopGo	-20%	-14%	-11%	-14%	-14%	52%[activator]	?	4%	-19%	-6%
SARS PLP yeast	1%	-4%	0%	3%	1%	1%	-3%	1%	-4%	-2%

#11 C[C@H](CO)N1C[C@H](C)[C@@H](CN(C)S(C)(=O)=O)Oc2ccc(NC(=O)Nc3ccccc3)cc2C1=O
#12 CC(C)c1onc(C(=O)NCc2cccs2)c1[N+](=O)[O-]
#13 COc1ccc(NC(C)=O)cc1S(=O)(=O)N1CCn2cccc2C1C (stereo not drawn)
#14 CCOC(=O)C1=C(C)NC(C)=C(C(=O)OCC)C1C(=O)OCC(=O)N1CC(C)OC(C)C1 (stereo not drawn)
#15 NC(=O)c1cnn(C2CCS(=O)(=O)C2)c1 (stereo not drawn)
#16 CCS(=O)(=O)NCC(c1cccnc1)N1CCN(c2ccc(OC)cc2)CC1 (stereo not drawn)
#17 O=C(Nc1ccc(Cl)c(Cl)c1)C1CCCCC1
#18 O=C1CN(C(=O)CN2C(=O)NC(c3ccccc3)(c3ccccc3)C2=O)c2ccccc2N1
#19 COc1ccc(CNC(=O)C(C)OC(=O)c2cccc(N(C)C)c2)cc1 (stereo not drawn)
#20 Oc1ccc(C[C@@H]2CNCCN2CCC23CC4CC(CC(C4)C2)C3)cc1
compound no.	11	12	13	14	15	16	17	18	19	20
RE007 growth inh	0%	3%	-9%	5%	-4%	5%	-11%	-8%	4%	1%
2A StopGo	-11%	0%	-6%	15%	2%	-3%	20%	-7%	-16%	?
SARS PLP yeast	2%	2%	-1%	-1%	-2%	7%	3%	2%	-6%	3%

#21 COc1ccccc1NCCC(=O)OCC(=O)Nc1cccc(S(=O)(=O)N(C)C)c1
#22 CC1(C2CC2)NC(=O)N(CC(=O)NCc2ccc(Cl)cc2Cl)C1=O (stereo not drawn)
#23 COc1cc(N)c(Cl)cc1C(=O)OCC(=O)N(C)C1CCCCC1
#24 Cc1cc(OCC(=O)OCC(=O)Nc2ccc(Cl)cn2)ccc1Cl
#25 O=C(Nc1cc(S(=O)(=O)N2CCCCCC2)ccc1OCC(F)(F)F)c1ccc(=O)[nH]c1
#26 CN(C(=O)c1ccccc1C(=O)OCC(=O)c1ccccc1)c1ccccc1
#27 COc1ccc(Nc2n[nH]c(N)c2C(N)=O)cc1
#28 O=C(N/N=C/c1c(F)c(F)c(F)c(F)c1F)c1cccc(S(=O)(=O)N2CCOCC2)c1
#29 CC(C)CN(C(=O)CN1CCc2ccccc21)c1c(N)n(CC(C)C)c(=O)[nH]c1=O
#30 CCOc1ccc(C(=O)NNC(=O)CCNC(=O)c2ccc(Br)cc2)cc1OC
compound no.	21	22	23	24	25	26	27	28	29	30
RE007 growth inh	-6%	-10%	-6%	-11%	-5%	-3%	6%	0%	29%	-2%
2A StopGo	-17%	-15%	1%	-15%	-5%	30%[activator]	12%	-9%	4%	-17%
SARS PLP yeast	5%	4%	-2%	2%	-5%	5%	1%	2%	3%	4%

#31 COc1cc(-c2noc(C)c2C(=O)NCCc2cccs2)cc(OC)c1OC
#32 CCOc1ccc(S(=O)(=O)N2CCN(C(=O)CN3C(=O)NC(C)(C)C3=O)CC2)cc1
#33 Cc1ccc(S(=O)(=O)NNC(=O)C(=O)NNS(=O)(=O)c2ccc(C)cc2)cc1
#34 O=C(Nc1ccc2c(c1)OCCO2)C1CCCC1
#35 CC(NC(=O)c1cc(S(=O)(=O)N2CCOCC2)ccc1F)c1ccc(-n2ccnc2)cc1 (stereo not drawn)
#36 C=CCC(C#N)(c1ccc(OC)c(OC)c1)c1cnccn1 (stereo not drawn)
#37 CCN(CC)S(=O)(=O)c1ccc(C(=O)Nc2nnc(COC)o2)cc1
#38 CCOc1ncccc1C(=O)Nc1cccc(-n2cnnn2)c1C
#39 Cc1ccc(Cl)c2c1NC(=O)C2=O
#40 CCOC(=O)[C@H]1[C@H]2COc3ccc(Cl)cc3[C@@H]2N2C(=O)c3ccc(C)cc3NC(=O)[C@@]12C
compound no.	31	32	33	34	35	36	37	38	39	40
RE007 growth inh	-6%	-1%	?	-13%	0%	5%	3%	3%	5%	9%
2A StopGo	-5%	-18%	-17%	?	-9%	-10%	-17%	0%	16%	-19%
SARS PLP yeast	0%	-12%	-4%	-6%	-5%	2%	1%	3%	-12%	-1%

#41 Cc1ccc2sc(N(CCCN(C)C)C(=O)c3ccc(S(=O)(=O)N(C)C)cc3)nc2c1C
#42 CC[C@@]1(C(=O)OC)N[C@H](CN(C)C(=O)C2CCCCC2)[C@@H]2C(=O)N(C)C(=O)[C@@H]21
#43 Cc1noc(C)c1COc1ccc(C(=O)N2CCN(c3ccccc3O)CC2)cc1
#44 O=C(CSc1nnc(Nc2ccccc2F)s1)NC1CC1
#45 O=C(CN1C(=O)CCC1=O)Nc1cccc(NC(=O)CN2C(=O)CCC2=O)c1
#46 Cc1ccc(S(=O)(=O)N2CCN(C(=O)CSCc3ccc(C(C)C)cc3)CC2)cc1
#47 C#CCOCCOCCOCCNc1nc(N2CCOCC2)nc(N2CCN(C(=O)CCCCCCCCCCNC(=O)[C@@H](CCSC)n3cc(CCO)nn3)CC2)n1
#48 Cc1cccc(OCCCC(=O)NNC(=O)c2ccccn2)c1
#49 O=C(CSc1nnc(-c2ccccc2F)o1)N1CCNC1=O
#50 CN1/C(=C\C(=O)C[n+]2ccc(C(=O)c3ccccc3)cc2)C(C)(C)c2ccccc21
compound no.	41	42	43	44	45	46	47	48	49	50
RE007 growth inh	-10%	3%	-25%	3%	-16%	11%	20%	-29%	17%	-3%
2A StopGo	-20%	-7%	-26%	54%[activator]	-8%	?	-14%	1%	47%[activator]	-32%
SARS PLP yeast	-1%	2%	0%	-1%	-1%	-4%	8%	-1%	1%	4%

An excerpt from above in order of length of the SMILES, ascending:
#44 O=C(CSc1nnc(Nc2ccccc2F)s1)NC1CC1
#42 CC[C@@]1(C(=O)OC)N[C@H](CN(C)C(=O)C2CCCCC2)[C@@H]2C(=O)N(C)C(=O)[C@@H]21
#47 C#CCOCCOCCOCCNc1nc(N2CCOCC2)nc(N2CCN(C(=O)CCCCCCCCCCNC(=O)[C@@H](CCSC)n3cc(CCO)nn3)CC2)n1
compound no.	44	42	47
RE007 growth inh	3%	3%	20%
2A StopGo	54%[activator]	-7%	-14%
SARS PLP yeast	-1%	2%	8%

Eleven structures from above, ordered by molar mass, smallest number first:
#39 Cc1ccc(Cl)c2c1NC(=O)C2=O
#48 Cc1cccc(OCCCC(=O)NNC(=O)c2ccccn2)c1
#49 O=C(CSc1nnc(-c2ccccc2F)o1)N1CCNC1=O
#38 CCOc1ncccc1C(=O)Nc1cccc(-n2cnnn2)c1C
#37 CCN(CC)S(=O)(=O)c1ccc(C(=O)Nc2nnc(COC)o2)cc1
#42 CC[C@@]1(C(=O)OC)N[C@H](CN(C)C(=O)C2CCCCC2)[C@@H]2C(=O)N(C)C(=O)[C@@H]21
#50 CN1/C(=C\C(=O)C[n+]2ccc(C(=O)c3ccccc3)cc2)C(C)(C)c2ccccc21
#43 Cc1noc(C)c1COc1ccc(C(=O)N2CCN(c3ccccc3O)CC2)cc1
#46 Cc1ccc(S(=O)(=O)N2CCN(C(=O)CSCc3ccc(C(C)C)cc3)CC2)cc1
#41 Cc1ccc2sc(N(CCCN(C)C)C(=O)c3ccc(S(=O)(=O)N(C)C)cc3)nc2c1C
#47 C#CCOCCOCCOCCNc1nc(N2CCOCC2)nc(N2CCN(C(=O)CCCCCCCCCCNC(=O)[C@@H](CCSC)n3cc(CCO)nn3)CC2)n1
compound no.	39	48	49	38	37	42	50	43	46	41	47
RE007 growth inh	5%	-29%	17%	3%	3%	3%	-3%	-25%	11%	-10%	20%
2A StopGo	16%	1%	47%[activator]	0%	-17%	-7%	-32%	-26%	?	-20%	-14%
SARS PLP yeast	-12%	-1%	1%	3%	1%	2%	4%	0%	-4%	-1%	8%

Next structures
#51 CC(C)C[C@H]1CN=C(N(C)C)N1CC1CCCCCC1
#52 CCOC(=O)N1CCN(CC(=O)Nc2sccc2C#N)CC1
#53 CC(Oc1ccccc1)C(=O)OCC(=O)NC(=O)NC1CCCCC1 (stereo not drawn)
#54 O=C(COC(=O)/C=C/c1ccco1)NCc1ccc(Cl)cc1Cl
#55 O=P(Oc1ccccc1)(Oc1ccccc1)C(O)c1ccccc1 (stereo not drawn)
#56 CCC1Nc2ncnc(N3CCN(c4ccccc4)CC3)c2N(Cc2ccc(Br)cc2)C1=O (stereo not drawn)
#57 C=CCn1c(O)c(N=NC(=S)Nc2ccccc2F)c2ccccc21
#58 COc1ccc(C(=O)N2CCN(C(=O)C3CCCO3)CC2)cc1[N+](=O)[O-] (stereo not drawn)
#59 CC(C)CC1CC(C)(c2csc(NNC(=O)c3ccccc3)n2)OC1=O (stereo not drawn)
#60 COc1cccc(NC(=O)CN(C)C(=O)Cc2cccc3ccccc23)c1
compound no.	51	52	53	54	55	56	57	58	59	60
RE007 growth inh	-13%	18%	-12%	7%	-4%	-14%	-3%	-15%	-18%	-1%
2A StopGo	-23%	-13%	-8%	-3%	-5%	-19%	-18%	-7%	-22%	-15%
SARS PLP yeast	-2%	0%	-3%	-8%	-4%	0%	-2%	-1%	2%	-4%

#61 CC(OC(=O)CN1C(=O)c2ccccc2C1=O)C(=O)c1ccccc1 (stereo not drawn)
#62 O=C(CN1C(=O)NC2(CCCCC2)C1=O)Nc1ccc2[nH]c(=O)[nH]c2c1
#63 CN(C(=O)COC(=O)c1ccc([N+](=O)[O-])cc1Cl)C1CCCCC1
#64 COc1ccccc1N1CCN(C(=O)c2n[nH]c3ccccc23)CC1
#65 O=C1/C(=C\c2ccncc2)CCc2ccccc21
#66 CC[C@@H]1C/C=C\Cc2ccccc2[C@H](C(=O)C[C@@H](O)CC(C)=O)OC1=O
#67 N#CCc1ccc(NC(=O)CSc2nnc(C3CC3)n2C2CC2)cc1
#68 Cc1cccc(C)c1OCC(=O)N/N=C/C=C/c1ccco1
#69 O=C(Cc1ccc(Br)cc1)Nc1ccc(Cl)cc1
#70 COc1ccc(C)cc1NC(=O)C(OC(=O)C1=NNC(=O)CC1)c1ccccc1 (stereo not drawn)
compound no.	61	62	63	64	65	66	67	68	69	70
RE007 growth inh	12%	4%	-6%	5%	?	1%	0%	-8%	-2%	-6%
2A StopGo	0%	0%	-3%	2%	-27%	?	-14%	14%	20%	35%[activator]
SARS PLP yeast	0%	-10%	4%	1%	0%	4%	-2%	-10%	-7%	-6%

#71 O=C1C(Cc2ccccc2)Nc2ncnc(N3CCc4ccccc4C3)c2N1Cc1ccc(Cl)cc1 (stereo not drawn)
#72 C=CC[C@H](CC(=O)NCCO)C(=O)N[C@H](COC(=O)[C@@H](CC=C)CC(=O)OC(C)(C)C)Cc1ccccc1
#73 O=C1CC(=O)CC(c2ccccc2)C1
#74 O=C(N/N=C/C(Cl)=C/c1ccccc1)c1ccc2c(c1)OCO2
#75 Nc1ccn([C@@H]2O[C@H](COS(=O)(=O)O)[C@@H](O)[C@H]2O)c(=O)n1
#76 COc1ccc2c(c1)[C@H]1[C@H](CO2)[C@H](c2ccccc2)[C@]2(C)C(=O)Nc3ccc(Br)cc3C(=O)N12
compound no.	71	72	73	74	75	76
RE007 growth inh	2%	-5%	-12%	-6%	-15%	-2%
2A StopGo	-17%	-8%	44%[activator]	42%[activator]	-6%	-23%
SARS PLP yeast	-1%	-2%	-6%	4%	5%	9%
